Vif A3G: inhibitors of Vif binding to APOBEC3G peptide, primary screen, biochemical, TR-FRET, GST-Vif 1-94, biotin-A3G peptide, dose response retest (AID 1117319). Virion infectivity factor (Human immunodeficiency virus type 1 group M subtype B (isolate …. TR-FRET GST-Vif / biotin-A3G peptide binding; higher % means a stronger effect; test concentration not given here; strong numbers were not always called active. one-dose inhibition, %; IC50 in µM for titrated hits. 0.57% of 260,000 active;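 active = above the screen mean plus three standard deviations and confirmed in dose response; inconclusive = results disagree or hit not tested in dose response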;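 note: Vif residues 1-94 fused to GST binding biotinylated APOBEC3G peptide 110-148; 0% = full assay without inhibitor and 100% = GST in place of GST-Vif; retest series ran down from 100 µM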
Beta2AR agonist: beta2AR agonists driving receptor internalization, primary screen, cell-based, FAP fluorogen, flow cytometry; Beta-2 adrenergic receptor (Homo sapiens), P07550; Am2.2-beta2AR cells; reference of the scale not given here; response, % (no concentration beside the values); 0.43% of 340,000 active;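 active = response above a set limit, near 3 SD of response in nonfluorescent compounds, cut at about 42% in these data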;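 note: stock transfer was 100 nL into about 11 µL; a reference agonist was the positive control; negative values mostly stem from fluorescent compounds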
ALR inh: inhibitors of human ALR sulfhydryl oxidase, primary screen, biochemical, H2O2 detection, HRP-luminol luminescence, single point; 3.8% of 290,000 active; FAD-linked sulfhydryl oxidase ALR (Homo sapiens), P55789; inhibition, % (concentration not given with the values); purified ALR, DTT oxidation;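 active = mean and each replicate at 75% or more; inconclusive = only one of the two met; inactive = neither met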;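 note: stock transfer was 7.5 nL into about 7.5 µL; 0% = neutral wells and 100% = wells with inactivated enzyme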
Target sequence (P55789 whole entry, looked up): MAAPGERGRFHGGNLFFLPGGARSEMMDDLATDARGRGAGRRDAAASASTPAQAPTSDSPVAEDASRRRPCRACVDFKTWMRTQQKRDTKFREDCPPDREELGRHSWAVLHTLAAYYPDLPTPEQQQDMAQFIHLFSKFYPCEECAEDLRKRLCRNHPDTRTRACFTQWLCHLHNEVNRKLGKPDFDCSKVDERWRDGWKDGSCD
Calb FLC: C. albicans growth inhibition with fluconazole, primary screen, CaCi-2 strain, Alamar Blue fluorescence; C. albicans CaCi-2 (fluconazole-resistant clinical isolate) + fluconazole, 48 h; growth inhibition, % (no concentration beside the values); 0.57% of 300,000 active;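 active = most replicates above 75%; inconclusive = exactly half above 75%; inactive = most below 75%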;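 note: all wells also contain fluconazole at 8 µg/ml as a sub-toxic cotreatment; 0% = median of DMSO wells and 100% = median of geldanamycin control wells; wells of about 8 µL received 7.5 nL stock; the first replicate is given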
RanGTP-Impb inh: inhibitors of RanGTP-importin-beta interaction, primary screen, biochemical, FRET, CFP-Ran, YFP-importin-beta, homogeneous. AID 2216, 2009. 1.1% of 300,000 active. Ran GTPase (GTP-bound) - importin-beta complex. inhibition, % (test concentration not listed). cell-free CFP-Ran/YFP-importin-beta FRET ratio;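 active = most replicates above 15%; inconclusive = exactly half above 15%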;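 note: 0% = DMSO wells and 100% = Ran loaded with GDP instead of GTP; wells of about 40 µL received 100 nL stock; the first replicate is given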
LANA-H2A inh: blockers of LANA interaction with H2A/H2B – biochemical, FP readout, HTS, primary screen. Protein LANA1 (Human herpesvirus 8 type P (isolate GK18)), Q9QR71. cell-free LANA-H2A/H2B peptide, fluorescence polarization. inhibition, % (concentration not given with the values). 0.6% of 320,000 active. AID 2629, 2010; in the data active = inhibition mostly above about 10%, no sharp cut-off; inactive = mostly below about 6.7%;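 note: stock transfer was 7.5 nL into about 10 µL; 0% = median of vehicle wells and 100% = median of positive control wells; one replicate is shown; the record names a cut of 25% in any replicate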
HNF4A DNA FP: change in binding of human HNF4A to DNA, primary screen, biochemical, fluorescence polarization, FITC-DNA. Hepatocyte nuclear factor 4-alpha (Homo sapiens), P41235. 1 h. activity change, % at 10 µM. 0.3% of 360,000 active; in the data active = activity change above about 30%, passing the limit was not always enough;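 note: controls were the assay level and a saturating level of protein; the project sought stronger binding though the title names inhibitors; some compounds called inactive have numbers as strong as hits; positive values seem to mean higher polarization but the record does not say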
Target sequence (P41235 whole entry, looked up): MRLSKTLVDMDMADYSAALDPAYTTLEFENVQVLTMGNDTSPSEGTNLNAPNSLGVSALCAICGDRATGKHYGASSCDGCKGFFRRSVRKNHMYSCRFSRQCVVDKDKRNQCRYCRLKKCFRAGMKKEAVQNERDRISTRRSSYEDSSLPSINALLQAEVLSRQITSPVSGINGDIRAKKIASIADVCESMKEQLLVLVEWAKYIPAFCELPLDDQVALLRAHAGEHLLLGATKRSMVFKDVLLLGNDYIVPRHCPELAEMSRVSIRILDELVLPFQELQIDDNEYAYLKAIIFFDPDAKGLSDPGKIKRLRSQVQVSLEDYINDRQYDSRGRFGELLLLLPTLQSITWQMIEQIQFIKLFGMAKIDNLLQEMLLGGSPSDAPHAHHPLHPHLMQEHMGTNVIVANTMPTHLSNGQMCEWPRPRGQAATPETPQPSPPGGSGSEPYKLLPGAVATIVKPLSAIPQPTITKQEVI
Active calls of the source: *; ? = inconclusive; / = not tested or not shown. Rows were taken by chance (roughly 6.3% active in at least one column).

SMILES	Vif A3G	Beta2AR agonist	ALR inh	Calb FLC	RanGTP-Impb inh	LANA-H2A inh	HNF4A DNA FP
COC(=O)C1=C[C@@H](C(=O)OC)[C@@H]2C3=C(C(=O)C2(C)C)[C@H](c2ccccc2)[C@@H]2C(=O)N(C)C(=O)[C@@H]2[C@@H]3C1	/	-2	0	0	-2.6	0.4	-0.9
O=c1[nH][nH]c(-c2ccccc2O)c1C(C[N+](=O)[O-])c1ccc(Cl)cc1Cl (stereo not given)	24%	9	/	3	1.3	/	-0.2
CC(=O)c1c(N2CCN(C)CC2)nc(=S)n(-c2cc(C)ccc2C)c1C	-1%	2	-5	34	34*	1.4	4.0
COC(=O)c1ccc(-c2noc(CN(C)CC3CCCCO3)n2)cc1 (stereo not given)	/	6	-6	-9	0.3	0.9	-0.4
CN(C)/C=N/c1nc(Sc2ccc(C(F)(F)F)cc2[N+](=O)[O-])n[nH]1	-10%	-7	4	-3	0.2	4.2	-1.3
CCOC(=O)c1c(S(=O)(=O)N2CCCC(C)C2)c(C)n(C)c1C (stereo not given)	/	7	-1	6	3.7	-3.5	-5.9
Cc1noc(NC(=O)c2ccccc2C(F)(F)F)c1C#N	-3%	0	/	17	2.5	-1.0	5.9
O=C(O)CC(=O)Nc1cc(Cl)ccc1O	12%	5	15	31	3.0	-1.4	-1.2
CC(NC(=O)CN1C(=O)NC(c2ccccc2)(c2ccccc2)C1=O)c1cccs1 (stereo not given)	-6%	-1	/	/	/	-8.7	2.2
COc1ccc(NS(=O)(=O)c2ccc3c(c2)CCCN3C(C)=O)cc1	/	2	-6	-1	-2.9	0.8	-1.2
COc1ccc(-c2cc(C(=O)N(C)Cc3ccc(F)cc3)c3ccccc3n2)cc1OC	/	12	-10	8	1.2	-1.4	1.1
COc1ccccc1NC(=O)Oc1ccc(C(C)=O)cc1	-3%	-2	-2	-3	1.6	0.4	-3.6
COc1ccc(C2C=C(C)Nc3nc4ccccc4n32)cc1 (stereo not given)	1%	4	22	-5	/	2.8	-0.2
CCOCCCNC(=O)C1(O)c2ccccc2NC(=O)N1c1ccc(Cl)c(Cl)c1 (stereo not given)	-2%	-8	-5	0	0.6	6.9	0.3
C[C@@H](C(=O)Nc1ccc2ccccc2c1)[C@@H]1C[C@@]1(C)[C@@H](NC(=O)OCc1ccccc1)c1ccccc1	/	-6	/	-7	5.1	-2.3	4.1
COc1cccc(COC(=O)c2cc(S(=O)(=O)N3CCCCC3)ccc2N2CCOCC2)c1OC	3%	-5	-12	-5	?	10	-0.3
O=C(c1cccc(C(F)(F)F)c1)N1CCN(c2cc(=O)[nH]nc2-c2ccccc2)CC1	2%	0	-2	7	-0.7	5.2	3.3
CC(=O)c1ccc(OCc2cc(C(=O)N(C)C(C)c3nccs3)no2)cc1 (stereo not given)	/	-10	/	4	-2.2	/	-3.1
Cn1nc(C(=O)NCc2ccccc2Cl)c2c1-c1ccccc1S(=O)(=O)C2	-2%	-1	3	-2	7.1	-4.1	2.5
CN(CCC#N)C(=S)Nc1ccc(Oc2ccccc2)cc1	3%	-13	1	?	2.2	5.3	-3.9
COC(=O)C(C(=O)NCC1CCCO1)C1CCCC1 (stereo not given)	-7%	7	-2	0	2.3	4.2	1.4
COC(=O)c1ccc(NC(=S)NCCC2=CCCCC2)cc1	71%	10	-3	-5	-2.6	-2.8	-2.7
COc1ccc(CCN2C(=O)C3C4CC(C5C(C(=O)O)=NOC45)C3C2=O)cc1OC (stereo not given)	4%	5	2	-1	-0.3	5.0	-5.1
CC(=O)NCC(=O)OCC(=O)c1ccc(Cl)cc1	/	4	-3	-5	1.8	1.2	-0.8
O=C(C1=C(O)C(=O)N(Cc2ccccc2)C1c1cccnc1)c1ccco1 (stereo not given)	/	0	18	4	-1.5	11*	-1.1
COc1ccc(S(=O)(=O)NCCc2c[nH]c3ccc(Cl)cc23)cc1	/	-2	4	26	-1.1	-1.1	1.9
C/C(=N\NC(=O)Cn1nc(C)c([N+](=O)[O-])c1C)c1ccc(O)cc1	/	-2	/	3	-1.6	2.5	0.3
O=C(CN1C(=O)COc2ccc(S(=O)(=O)N3CCCCCC3)cc21)NCc1ccc(F)cc1	-2%	0	-9	2	3.0	3.2	6.0
COc1cc(CN2CCNC(=O)C2CC(=O)NC2CCCCC2)cc(OC)c1 (stereo not given)	/	3	-8	2	2.4	-0.9	2.2
CCNC(=O)OCC12CC3CC(CC(C3)C1)C2	-1%	0	-2	4	-1.9	1.4	-0.5
CCc1cc2c(Sc3nc4ccccc4s3)ncnc2s1	-25%	2	3	1	2.8	-3.7	2.7
CC(=O)ONC(=Nc1ccccc1)c1nonc1N	/	7	16	-1	3.1	-1.3	0.8
CCN(Cc1cnn(C)c1)Cc1nc(C2(c3ccc(C)cc3)CCCC2)no1	3%	-3	13	7	?	0.9	2.7
COc1ccc(/C=N/NC(=S)Nc2cc(S(=O)(=O)N3CCOCC3)ccc2N2CCOCC2)cc1O	24%	4	-6	-8	-1.5	5.7	0.2
Cc1noc(C)c1COc1cccc(C(=O)OCC(=O)N2CC(=O)Nc3ccccc32)c1	8%	-15	-4	-14	3.8	1.8	1.9
CCCCOc1ccc(CSC2=NCCN2)cc1[N+](=O)[O-]	/	5	100*	-45	-2.2	-3.5	4.3
CCc1ccc(CN2CCN(C(=O)c3ccco3)CC2)cc1	3%	-3	-13	1	-5.1	1.0	1.6
O=C(c1ccccc1Br)N1CCN(c2ccccn2)CC1	/	-7	4	-3	-0.5	3.2	4.0
Cc1c(C(N)=O)sc2nc(-c3ccccc3)cn12	1%	3	30	?	5.7	-1.0	-1.5
O=S(=O)(Nc1ccncc1)c1cc(Cl)c(Cl)cc1Cl	/	3	-6	14	-3.3	2.3	-0.7
CCOC(=O)C1CCN(C(=O)C2CC(=O)N(c3ccc(C)cc3)C2)CC1 (stereo not given)	7%	9	-2	-1	-2.0	-2.8	-2.9
Cn1nc(C(C)(C)C)c([N+](=O)[O-])c1C(=O)NC(C)(C)C	22%	-5	0	-17	-4.7	-2.7	1.5
O=C(NCc1cccs1)c1nc2c(nnn2Cc2ccc(F)cc2)c(=O)[nH]1	18%	0	18	46	1.5	-2.5	1.6
CC1C(=O)C(C)C(c2ccc(Cl)cc2)NC1c1ccc(Cl)cc1 (stereo not given)	/	12	0	-4	3.0	2.0	0.5
O=C(Nc1ccc(N2CCOCC2)cc1)c1cc2c(s1)CCCCC2	11%	6	/	43	-1.1	0.1	-0.9
CCN1CCN(c2ccc(NC(=O)c3cccc(N4CCCC4=O)c3)cc2)CC1	/	6	-3	-8	3.2	1.4	-1.5
COc1ccc(S(=O)(=O)N2CCCCCC2)cc1C(=O)N(C)Cc1ccc(C(C)(C)C)cc1	/	-2	-12	4	-5.9	0.3	-2.2
CC1=C(C#N)C(c2ccccc2O)C(C#N)=C(C)N1	2%	1	6	-2	0.7	7.0	-4.1
CCCCCSc1nnc(-c2ccccc2N)c(=O)[nH]1	-5%	0	-13	0	5.1	4.7	1.4
COc1ccc(-c2nnc(SCCOc3cccc(C)c3)n2N)cc1	2%	-16	/	0	-0.7	-2.4	5.0
CC(C)C(=O)Nc1cc(S(=O)(=O)Nc2ccc(Cl)cc2)ccc1Cl	/	-7	46	36	-8.3	-2.5	-0.3
C[C@@H]1O[C@@H](OC[C@H]2O[C@@H](Oc3c(-c4ccc(O)cc4)oc4cc(O)cc(O)c4c3=O)[C@H](O)[C@@H](O)[C@@H]2O)[C@H](O)[C@H](O)[C@H]1O	/	3	67	2	2.8	-6.1	1.5
COc1ccc(NC(=O)COc2ccc(N(C)S(=O)(=O)c3ccc(Cl)cc3)cc2)cc1	-1%	-2	6	/	/	-2.6	-5.2
COC(=O)N/N=C/c1cc(Br)ccc1O	8%	4	-4	-5	3.1	-0.9	-0.3
Cc1ccc(C[n+]2ccccc2)cc1	/	0	14	4	2.3	1.5	2.0
Cc1cccc(-c2nnc(SCC(=O)Nc3nc4c(s3)CCCC4)n2C)c1	-7%	5	-7	-6	-2.2	4.6	-4.2
Cc1ccc(NC(=O)c2cc(S(=O)(=O)NCCC3=CCCCC3)ccc2F)cc1	4%	-4	-5	-8	-1.3	-0.5	2.1
CC(NC(=O)c1cc(-c2ccccn2)nc2ccc(Cl)cc12)C1CCCO1 (stereo not given)	/	2	3	5	5.7	2.0	-1.8
Cc1ccc(OCCNc2ccc(S(=O)(=O)N3CCCC3)cn2)cc1	-6%	10	/	/	/	/	0.4
Cc1cc(C(F)F)n2nc(C(=O)Nc3ccc(S(=O)(=O)NC45CC6CC(CC(C6)C4)C5)cc3)nc2n1	-2%	-14	-5	-6	-2.0	-1.0	4.9
(list continues)
SMILES	Vif A3G	Beta2AR agonist	ALR inh	Calb FLC	RanGTP-Impb inh	LANA-H2A inh	HNF4A DNA FP
COCCN(C(=O)c1ccc(COc2ccccc2)o1)c1c(N)n(CC(C)C)c(=O)[nH]c1=O	3%	-6	3	/	/	-3.1	-5.0
COc1ccc(CN(C)C(=O)c2ccncc2)c(OC)c1	/	1	-10	-1	2.1	3.3	-1.1
O=C(NCC(c1cccs1)N1CCOCC1)c1cc(S(=O)(=O)N2CCOCC2)c(Cl)cc1Cl (stereo not given)	-8%	-4	28	3	-2.0	0.8	0.1
CCCCNC(=O)CSc1nc2ccccc2c(=O)n1Cc1ccc2c(c1)OCO2	-9%	2	-5	14	2.5	0.6	-4.2
Cc1c2n(c3ccccc13)CC/C2=N\O	/	1	/	11	-3.8	0.6	-5.6
C=C1CCN(C(C)C(=O)OC)S(=O)(=O)c2ccccc21 (stereo not given)	/	-7	-14	25	1.1	-2.4	1.8
NC(=O)C1CCN(c2oc(-c3ccccc3)nc2S(=O)(=O)c2ccc(Br)cc2)CC1	11%	8	0	3	2.7	-4.3	0.6
CCN(CC)C(=O)CN1CCN(c2ncccn2)CC1	2%	3	0	-7	1.6	-2.1	1.6
CCCOC(=O)c1cc(-c2ccc(C=O)o2)ccc1Cl	/	-2	1	6	2.1	-6.7	0.6
